Yeast UUG start: yeast start codon fidelity modulation; S. cerevisiae UUG-firefly luciferase reporter, luminescence/redox ratio; activity score, % at 18.7 µM; hit rate 0.13% among 350,000; AID 602363;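 active means replicate mean at a twofold rise or more, about +100% in these data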;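 further: firefly luciferase made from a UUG start codon reports start codon fidelity; reporter light over untreated wells divided by growth signal over untreated wells; some hits fall short of that in this replicate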
CSC inhib: cancer stem cell inhibition; cancer stem cell-like cells viability, luminescence; AID 2717; hit rate 1.1% among 300,000; inhibition, % at 7.5 µM;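 active means mean at 75% or more and at least half the replicates too; tested in HMLE shEcad cells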;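 further: 0% = median of negative and 100% = median of positive control wells; the first replicate is given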
Env fusion inh: blocks HIV Env-driven cell-cell fusion | inhibition, % at 12.3 µM | hit rate 1.1% among 360,000 | AID 651610 | HeLa-JRFL Env/CEM21 cell fusion, luciferase;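 active means mean replicate inhibition score of at least 50 and every replicate individually at or above 50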;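 further: 0% = plate neutral controls and 100% = maraviroc near 300 nM; one replicate is shown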
Rce1 inhib: yeast Ras-converting enzyme inhibition; yeast membranes, quenched prenylated peptide cleavage fluorescence; calls only; hit rate 0.27% among 290,000; AID 2563;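 active means fall in fluorescence gain of 50% or more versus controls, with final raw signal at or below 3038400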;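 further: plate controls were neutral control wells for no effect and wells lacking membranes for full effect; tested at 10 µM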
PABP FP inh: blocks human PABP binding to poly(A) RNA. P11940. fluorescence polarization. inhibition, % at 35 µM. hit rate 1% among 290,000;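 active means 50% or more with normal probe brightness, or confirmed in later tests; about a fifth of its hits are not listed in these tables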;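 further: calls also rest on retests at 20 µM and on dose response follow-up; controls were probe without protein and protein plus probe with vehicle; some compounds called inactive have numbers as strong as hits; many hits fall short of the cut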
Target sequence (P11940 whole entry, looked up): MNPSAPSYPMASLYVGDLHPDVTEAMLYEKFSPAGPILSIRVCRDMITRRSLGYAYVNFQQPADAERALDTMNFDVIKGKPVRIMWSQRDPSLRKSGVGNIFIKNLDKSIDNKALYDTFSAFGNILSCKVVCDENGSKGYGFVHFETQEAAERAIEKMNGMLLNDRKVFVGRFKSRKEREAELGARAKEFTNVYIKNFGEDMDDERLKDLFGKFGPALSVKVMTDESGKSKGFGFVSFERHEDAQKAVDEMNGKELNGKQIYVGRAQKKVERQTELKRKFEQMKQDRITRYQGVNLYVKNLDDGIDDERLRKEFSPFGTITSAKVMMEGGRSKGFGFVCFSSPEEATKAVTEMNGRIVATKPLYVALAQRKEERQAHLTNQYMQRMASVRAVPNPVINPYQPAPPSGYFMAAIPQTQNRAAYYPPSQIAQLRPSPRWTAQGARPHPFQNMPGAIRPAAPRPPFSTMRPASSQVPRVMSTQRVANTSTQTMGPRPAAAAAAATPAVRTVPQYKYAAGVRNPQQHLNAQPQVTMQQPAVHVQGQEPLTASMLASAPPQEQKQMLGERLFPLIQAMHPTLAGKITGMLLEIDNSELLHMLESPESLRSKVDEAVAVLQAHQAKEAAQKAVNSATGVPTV
eIF4H inh: inhibitors of RNA binding by human eIF4H. eIF4H fluorescence polarization binding assay. inhibition, % at 35 µM. hit rate 0.94% among 290,000;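 active means 50% or more with normal probe brightness, or confirmed in later tests; about a fifth of its hits are not listed in these tables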;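 further: calls also rest on retests at 20 µM and on dose response follow-up; 0% = protein and probe with vehicle and 100% = probe without protein; strong numbers were not always called active; many hits fall short of the cut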
MT1-MMP act inh: blocks activation of human MT1-MMP; P50281; HT1080 RFP-PRO-GFP cells, GFP/RFP ratio fluorescence, overnight; percent of plate control window, DMSO zero; GFP/RFP ratio change, % at 20 µM; hit rate 0.061% among 360,000; AID 651647;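 active means GFP/RFP ratio change of at least 30% with cell ATP level not reduced by more than half and red fluorescence within 50% of control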; further: strong numbers were not always called active
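Material: RFP-PRO-GFP reporter HT1080 cells. Dosing: single-point 20 µM compound, 1% DMSO. Controls: DMSO and RFP-L50D-GFP cell wells. Timing: cells overnight before dosing, compound overnight, 37 °C, 5% CO2. Measure: GFP/RFP fluorescence ratio.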
MT1-MMP act inh RFP: further read-out of MT1-MMP act inh, marked with its call; RFP signal change, %; measured here: RFP expression control read;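 0 = vehicle wells; hits needed this value within 50% of zero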
The depositor's hits bear a star.

Screening COCCn1c(=NC(=O)/C=C/c2ccccc2)sc2cc(NC(C)=O)ccc21 returned Yeast UUG start 2, CSC inhib 23, Env fusion inh 10, Rce1 inhib inactive, PABP FP inh 15 and eIF4H inh -2.
For COC(=O)Nc1ccc(S(=O)(=O)Nc2ncccn2)cc1 the results were CSC inhib -1, Env fusion inh 8, Rce1 inhib inactive, PABP FP inh 0, eIF4H inh 6, MT1-MMP act inh 2 and MT1-MMP act inh RFP 3.
NNC(=O)CN1C(CN2CCOCC2)=Nc2ccc(Br)cc2C1c1ccccc1 (stereo unspecified) was read as CSC inhib -6, Env fusion inh -5, Rce1 inhib inactive, PABP FP inh -7, eIF4H inh -7, MT1-MMP act inh 4 and MT1-MMP act inh RFP 8.
`COC(=O)/C=C1\S/C(=N/NC(=O)c2ccc(OC)cc2)NC1=O` gave CSC inhib -6, Env fusion inh 8, Rce1 inhib inactive, PABP FP inh -1, eIF4H inh 1, MT1-MMP act inh -4 and MT1-MMP act inh RFP 1.
CC(C)OC(=O)CC12CN3CN(C1)CC(CC(=O)OC(C)C)(C3)C2=O was read as Yeast UUG start -1, CSC inhib -10, Rce1 inhib inactive, PABP FP inh 4, eIF4H inh 0, MT1-MMP act inh 4 and MT1-MMP act inh RFP 5.
`O=C(c1ccc(F)cc1)N1CCCCC(S(=O)(=O)c2ccccc2)C1=O` (stereo unspecified) gave CSC inhib -20, Env fusion inh -81, Rce1 inhib inactive, PABP FP inh 5, eIF4H inh -1, MT1-MMP act inh 2 and MT1-MMP act inh RFP 3.
Screening Cc1ccc(S(=O)(=O)N2CCN(C(=O)C3CC3C)CC2)c(C)c1 (stereo unspecified) returned Yeast UUG start -6, Env fusion inh -36, Rce1 inhib inactive, MT1-MMP act inh 9 and MT1-MMP act inh RFP -4.
Screening CCOc1ccc(NC(=O)CN2C(=O)CSc3ccc(S(=O)(=O)N4CCOCC4)cc32)cc1 returned Yeast UUG start 2, CSC inhib -6, Env fusion inh -4, Rce1 inhib inactive, MT1-MMP act inh -2 and MT1-MMP act inh RFP -1.
For O=C(CCCc1c[nH]c2ccccc12)Nc1ccc(S(=O)(=O)Nc2ncccn2)cc1 the results were Yeast UUG start -9, CSC inhib -17, Env fusion inh 8, Rce1 inhib inactive, PABP FP inh -1, eIF4H inh -6, MT1-MMP act inh 1 and MT1-MMP act inh RFP 0.
O=C(Cn1cnc2c(OCc3ccccc3)ncnc21)NCc1ccccc1 was read as Yeast UUG start -22, Env fusion inh -61, MT1-MMP act inh 0 and MT1-MMP act inh RFP -1.
Screening O=C(CN1C(=O)CSc2ccc(S(=O)(=O)N3CCOCC3)cc21)NCCCN1CCc2ccccc2C1 returned CSC inhib 0, Env fusion inh -9, Rce1 inhib inactive, PABP FP inh 3, eIF4H inh 6, MT1-MMP act inh -7 and MT1-MMP act inh RFP -3.
COc1ccc(Cc2ccccc2C(=O)O)cc1 was read as Yeast UUG start 11, Env fusion inh -17, MT1-MMP act inh -1 and MT1-MMP act inh RFP 3.
CC(C)CNS(=O)(=O)c1cc2c3c(c1)CCC(=O)N3CCC2 was read as Yeast UUG start -14, CSC inhib 9, Env fusion inh -1, Rce1 inhib inactive, PABP FP inh 6, eIF4H inh -11, MT1-MMP act inh 2 and MT1-MMP act inh RFP 3.
For COC(=O)C1CCN(C(=O)COC(=O)c2ccc(=O)n(Cc3ccccc3)n2)CC1 the results were Yeast UUG start -6, Rce1 inhib inactive, MT1-MMP act inh 4 and MT1-MMP act inh RFP -1.
COCc1ccc(C(=O)N2CCCC(Nc3ccc(F)c(F)c3)C2)s1 (stereo unspecified) was read as Yeast UUG start -10, CSC inhib 1, Env fusion inh 4, Rce1 inhib inactive, PABP FP inh -2, eIF4H inh 2, MT1-MMP act inh 1 and MT1-MMP act inh RFP 2.

Reprinted at random: 2 compounds from above, in no set order.
O=C(Cn1cnc2c(OCc3ccccc3)ncnc21)NCc1ccccc1 was read as Yeast UUG start -22, Env fusion inh -61, MT1-MMP act inh 0 and MT1-MMP act inh RFP -1.
COc1ccc(Cc2ccccc2C(=O)O)cc1 was read as Yeast UUG start 11, Env fusion inh -17, MT1-MMP act inh -1 and MT1-MMP act inh RFP 3.

The list goes on.
For O=C(COC(=O)c1ccc2c(c1)OCCO2)Nc1ccc(F)cc1F the results were Yeast UUG start -10, CSC inhib -2, Env fusion inh 1, MT1-MMP act inh 3 and MT1-MMP act inh RFP 2.
CC1CCN(S(=O)(=O)c2ccc3ncn(CC(=O)N4CCN(C)CC4)c(=O)c3c2)CC1 was read as CSC inhib 33, Env fusion inh 0, Rce1 inhib inactive, PABP FP inh 0, eIF4H inh 4, MT1-MMP act inh -2 and MT1-MMP act inh RFP 1.
For CC1Sc2ccc(S(=O)(=O)CCC(=O)N(C)Cc3ccco3)cc2NC1=O (stereo unspecified) the results were Yeast UUG start 4, CSC inhib -4, Env fusion inh -1, Rce1 inhib inactive, PABP FP inh -8, eIF4H inh -3, MT1-MMP act inh 0 and MT1-MMP act inh RFP 3.
For Cc1ccc(C(=O)NN2CC(O)=C(c3nc(-c4cccc([N+](=O)[O-])c4)cs3)C2=N)cc1 the results were CSC inhib 4, Env fusion inh 8, Rce1 inhib inactive, PABP FP inh 11, eIF4H inh 18, MT1-MMP act inh -2 and MT1-MMP act inh RFP -1.
`C/C(N)=C(/C#N)C(=O)COC(=O)c1cccc(O)c1` gave CSC inhib 3, Env fusion inh -4, Rce1 inhib inactive, PABP FP inh -8, eIF4H inh 8, MT1-MMP act inh 4 and MT1-MMP act inh RFP 3.
O=c1ccc(NS(=O)(=O)c2ccccc2)cn1Cc1ccc(Cl)c(Cl)c1 was read as Yeast UUG start -2, CSC inhib -19, Env fusion inh 36, PABP FP inh 6, eIF4H inh -2, MT1-MMP act inh -5 and MT1-MMP act inh RFP 1.
Screening Cc1cccc(NC(=O)C2CC(O)CN2C(=O)Oc2ccccc2)c1 (stereo unspecified) returned Yeast UUG start -10, Env fusion inh -2, Rce1 inhib inactive, PABP FP inh -10, eIF4H inh -11, MT1-MMP act inh -2 and MT1-MMP act inh RFP 3.
`O=S(=O)(c1ccc(N2CCN(Cc3ccccc3)CC2)nc1)N1CCCC1` gave Yeast UUG start -11, Env fusion inh -5, MT1-MMP act inh -1 and MT1-MMP act inh RFP -4.
Screening CC1(C)C(/C=C/C=C/C=C/C=C2\N(CCCCS(=O)(=O)O)c3ccc4ccccc4c3C2(C)C)=[N+](CCCCS(=O)(=O)[O-])c2ccc3ccccc3c21 returned Yeast UUG start 8, CSC inhib 23, MT1-MMP act inh 36 and MT1-MMP act inh RFP 57.
Screening CCOc1cc(C2C3=C(CC(C)(C)CC3=O)N(CCCOC)C3=C2C(=O)CC(C)(C)C3)ccc1O returned Yeast UUG start 0, CSC inhib 5, Env fusion inh 7, Rce1 inhib inactive, PABP FP inh 3, eIF4H inh 3, MT1-MMP act inh -5 and MT1-MMP act inh RFP -1.
S=C(Nc1ccccc1)N(CCN1CCOCC1)Cc1cccc(Cl)c1 was read as Yeast UUG start -13, Env fusion inh -14, Rce1 inhib inactive, PABP FP inh 9, eIF4H inh 15, MT1-MMP act inh -2 and MT1-MMP act inh RFP -3.
Nc1nc(-c2cc3ccccc3o2)cs1 was read as Yeast UUG start -24, CSC inhib 7, Env fusion inh -94, Rce1 inhib inactive, PABP FP inh -3, eIF4H inh -7, MT1-MMP act inh -2 and MT1-MMP act inh RFP -2.
For COc1cccc(C(=O)OC2CCN(C)CC2)c1 the results were CSC inhib -2, Env fusion inh -8, Rce1 inhib inactive, PABP FP inh -16, eIF4H inh -7, MT1-MMP act inh 0 and MT1-MMP act inh RFP 8.
For COC(=O)C1=NN[C@H](C(=O)OC)[C@H]1c1ccccc1 the results were Yeast UUG start -10, CSC inhib -7, Env fusion inh -11, Rce1 inhib inactive, PABP FP inh 7, eIF4H inh -6, MT1-MMP act inh 1 and MT1-MMP act inh RFP 0.
Screening CCOc1cc(NC(=O)C2CC2)c(OCC)cc1NC(=O)CCn1nnc2ccccc21 returned Yeast UUG start -9, CSC inhib 4, Env fusion inh 1, Rce1 inhib inactive, PABP FP inh -2, eIF4H inh -3, MT1-MMP act inh 0 and MT1-MMP act inh RFP 1.
For CCCNS(=O)(=O)c1ccc(N2CCCC2=O)c([N+](=O)[O-])c1 the results were Env fusion inh -16, Rce1 inhib inactive, PABP FP inh -5, eIF4H inh -8, MT1-MMP act inh 9 and MT1-MMP act inh RFP 6.
`CCCC(=O)NC(=S)Nc1ccccc1OC` gave Yeast UUG start -13, Env fusion inh -34, Rce1 inhib inactive, PABP FP inh -4, eIF4H inh -9, MT1-MMP act inh -3 and MT1-MMP act inh RFP 0.
For O=C(C1CCC(Cn2c(=S)[nH]c3ccccc3c2=O)CC1)N1CCN(c2ccccn2)CC1 (stereo unspecified) the results were Yeast UUG start -10, CSC inhib 35, Env fusion inh 12, Rce1 inhib inactive, PABP FP inh -16, eIF4H inh 4, MT1-MMP act inh -10 and MT1-MMP act inh RFP -22.
`COc1ccc(C)cc1NC(=O)Nc1ccc2c(c1)CCC2` gave Yeast UUG start 2, CSC inhib 17, Env fusion inh -8, Rce1 inhib inactive, PABP FP inh 11, eIF4H inh 7, MT1-MMP act inh 0 and MT1-MMP act inh RFP 0.
`CN(C)S(=O)(=O)c1ccc(NC(=O)COC(=O)CC2CC3CCC2C3)cc1` (stereo unspecified) gave Yeast UUG start 9, CSC inhib -3, Env fusion inh -6, Rce1 inhib inactive, PABP FP inh -4, eIF4H inh 1, MT1-MMP act inh 2 and MT1-MMP act inh RFP 0.
Screening Cc1cc(C)c[n+](-c2[nH]c(=O)sc2/C=N/N=C(\N)[S-])c1 returned CSC inhib 12, Env fusion inh 4, Rce1 inhib inactive, PABP FP inh 3, eIF4H inh 14, MT1-MMP act inh 2 and MT1-MMP act inh RFP 4.
Screening S=c1[nH]nc(COc2ccc(Cl)cc2)n1-c1ccc(Cl)cc1 returned Yeast UUG start -17, CSC inhib -18, Env fusion inh 18, Rce1 inhib inactive, PABP FP inh -3, eIF4H inh -10, MT1-MMP act inh 5 and MT1-MMP act inh RFP 2.
`CCCS(=O)(=O)NC(=O)C1(C)CCCN(C(=O)c2cccnc2Oc2ccccc2)C1` (stereo unspecified) gave Yeast UUG start -14, Env fusion inh 15, MT1-MMP act inh -1 and MT1-MMP act inh RFP 6.
Screening O=C(c1ccc(C(F)(F)F)cc1)N1CCN(c2ccc(N3CCOCC3)nn2)CC1 returned Yeast UUG start -2, CSC inhib 29, Env fusion inh -4, Rce1 inhib inactive, MT1-MMP act inh 0 and MT1-MMP act inh RFP -5.
COc1ccc(N2CCN(C(CNC(=O)C(=O)NCc3ccc4c(c3)OCO4)c3ccco3)CC2)cc1 (stereo unspecified) was read as CSC inhib 9, Env fusion inh 8, Rce1 inhib inactive, PABP FP inh -5, eIF4H inh -4, MT1-MMP act inh 4 and MT1-MMP act inh RFP -25.
Screening COc1ccnc2c1c(=O)n(Cc1cccc(Cl)c1)c(=O)n2C returned Yeast UUG start 9, CSC inhib -9, Env fusion inh 6, Rce1 inhib inactive, PABP FP inh 9, eIF4H inh -12, MT1-MMP act inh 2 and MT1-MMP act inh RFP 4.
Screening CCCc1ccc(C(=O)NNc2cccc(C)c2)cc1 returned Yeast UUG start -16, CSC inhib 77*, Env fusion inh -52, Rce1 inhib inactive, PABP FP inh 6, eIF4H inh 1, MT1-MMP act inh 2 and MT1-MMP act inh RFP 2.
Screening CC(C)OCCCNC(=O)Cn1ncc2c(=O)oc3ccccc3c21 returned Yeast UUG start -7, CSC inhib 26, Rce1 inhib inactive, PABP FP inh 16, eIF4H inh 1, MT1-MMP act inh -1 and MT1-MMP act inh RFP 5.
For O=S(=O)(c1cccc2nsnc12)N1CCc2ccccc21 the results were Yeast UUG start -7, Env fusion inh 0, Rce1 inhib inactive, PABP FP inh -6, eIF4H inh 0, MT1-MMP act inh 11 and MT1-MMP act inh RFP -2.
